Polio RdRp inh: poliovirus RdRp elongation inhibitors, primary screen, biochemical, fluorescence polarization, total intensity. Genome polyprotein (Poliovirus type 1 (strain Mahoney)), P03300. poliovirus polymerase elongation; stronger effect = lower value. % elongation, % (compound at 16.7 µg/mL). actives 0.66% (n = 150,000); in the data active means % elongation below about 90%; further: some results filed as inactive read as strong as hits
MbtI inh: MbtI salicylate synthase inhibitors, primary screen, biochemical, fluorescence intensity. P9WFX0. purified MbtI enzyme, fluorescence intensity read-out. inhibition, %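 (about 17 µg/mL by stock and volumes)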. actives 0.89% (n = 100,000);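 active means above 50% in both replicates, above 80% if mildly self-fluorescent; inactive means the rest, strongly fluorescent compounds included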;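 further: 0% = mean of negative and 100% = mean of positive controls; one replicate is shown; some compounds called inactive have numbers as strong as hits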
Target sequence (P9WFX0 whole entry, looked up): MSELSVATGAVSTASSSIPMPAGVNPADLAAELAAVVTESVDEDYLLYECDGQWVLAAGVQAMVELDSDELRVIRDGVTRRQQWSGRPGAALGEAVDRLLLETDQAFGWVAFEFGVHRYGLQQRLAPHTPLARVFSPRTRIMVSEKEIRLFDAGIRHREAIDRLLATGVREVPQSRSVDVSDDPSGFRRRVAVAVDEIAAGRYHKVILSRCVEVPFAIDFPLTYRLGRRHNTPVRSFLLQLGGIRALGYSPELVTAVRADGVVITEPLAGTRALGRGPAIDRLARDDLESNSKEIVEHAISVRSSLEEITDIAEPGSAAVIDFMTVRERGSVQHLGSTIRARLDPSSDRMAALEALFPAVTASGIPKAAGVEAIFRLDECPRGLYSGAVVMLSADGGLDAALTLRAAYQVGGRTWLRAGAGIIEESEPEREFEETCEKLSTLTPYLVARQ
Mtb MenB inh: M. tuberculosis MenB inhibitors, primary screen, biochemical, absorbance; 1,4-dihydroxy-2-naphthoyl-CoA synthase (Mycobacterium tuberculosis (strain ATCC 25618 / …; AID 540299, 2011; MenB enzyme assay, absorbance read-out; some hits fall short of the stated cut; actives 0.43% (n = 100,000); inhibition, %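 (about 12 µg/mL by stock and volumes)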;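 active means mean of two replicates above 30%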;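 further: 0% = no compound and 100% = wells with inactive enzyme; the first replicate is given; strong numbers were not always called active; inactives centre near -10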
Target sequence (P9WNP5 whole entry, looked up): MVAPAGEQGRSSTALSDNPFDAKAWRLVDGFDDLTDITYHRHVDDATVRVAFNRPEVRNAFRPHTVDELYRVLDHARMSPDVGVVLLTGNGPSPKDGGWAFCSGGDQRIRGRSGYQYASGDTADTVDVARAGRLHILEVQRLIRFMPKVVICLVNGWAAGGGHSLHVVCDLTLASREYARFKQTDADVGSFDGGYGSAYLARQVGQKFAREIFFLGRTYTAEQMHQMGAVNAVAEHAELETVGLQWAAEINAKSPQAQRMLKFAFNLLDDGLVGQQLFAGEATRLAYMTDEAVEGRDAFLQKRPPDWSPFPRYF
Polio RdRp inh intensity: second read-out of Polio RdRp inh, no call of its own (marks repeat the call); % elongation; measured here: total intensity read-out; formula for this scale not given here;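 total fluorescence in place of polarization; lower means less elongation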
* = called active by the depositor; / = not tested or not shown.

SMILES	Polio RdRp inh	Polio RdRp inh intensity	MbtI inh	Mtb MenB inh
O=C(NC(=O)c1cccc(F)c1)Nc1nc(-c2ccccc2)cc(C(F)(F)F)n1	104.0	104.0	/	-29.6
COc1ccc(CC(=O)OCc2nc3ccc(Cl)cc3n2CCO)cc1OC	104.0	103.0	-10.1	-28.7
CN(C)C(=O)COC(=O)c1ccccc1Nc1ccc(SC(F)F)cc1	107.0	110.0	-159.8	-9.4
CCCNC(=O)c1noc2c1CCc1ccccc1-2	100.0	102.0	15.8	-4.3
O=C(CNCCC1=CCCCC1)Nc1ccccc1N1CCCCC1	103.0	102.0	-23.0	-41.3
NC(=O)CSc1ccc2nnc(-c3ccc(Cl)cc3)n2n1	99.0	102.0	14.3	-7.8
CCN1CCOC2(O)C=CC(=O)C=C12 (stereo not drawn)	101.0	103.0	54.6	-98.7
COc1ccccc1N1C(=O)CSC1=NC(=O)c1ccccc1	/	/	-3.6	-16.2
COC(=O)C1=C(NNc2ccccc2)CSC1	102.0	104.0	26.4	-14.9
CCc1ccc(CN2CCN(Cc3ccc4c(c3)OCO4)CC2)cc1	103.0	110.0	9.8	-12.6
Cc1c(C(=O)N(Cc2ccccc2)Cc2cccnc2)cnn1-c1ccc(F)cc1	102.0	98.0	-6.1	-14.8
O=C(c1cccc(S(=O)(=O)Nc2cccc(Cl)c2)c1)N1CCCCC1	101.0	97.0	-7.0	/
O=C(CSc1ccc(C(=O)O)cn1)Nc1ccc(OC(F)(F)F)cc1	104.0	100.0	-3.2	-21.1
Cc1cc2ncc(S(=O)(=O)C(C)(C)C)c(N)n2n1	102.0	102.0	9.8	-14.9
CC(=O)Nc1ccc(S(=O)(=O)c2cc(O)ccc2O)cc1	100.0	102.0	30.1	1.2
CC(CN1CCOCC1)OC(=O)c1ccc2c(c1)OCCO2 (stereo not drawn)	107.0	112.0	/	-6.6
O=c1[nH]c2ccc(S(=O)(=O)NC3CC3)cc2[nH]1	101.0	99.0	-5.1	-27.2
CNC(=O)c1cccc(N)c1	95.0	94.0	119.2	-21.0
Cc1ccc(C)c(S(=O)(=O)CCC(=O)O)c1	101.0	103.0	-4.8	-29.4
CC(C)NC(=O)c1c2c(nc3ccccc13)CCCC2	100.0	96.0	-3.0	/
O=S(=O)(c1ccccc1)N(Cc1ccccc1)Cc1ccccc1	103.0	105.0	-2.4	-24.7
COc1ccc(CCNc2nc3c(c(C(F)(F)F)n2)CCCCC3)cc1OC	100.0	102.0	-11.2	2.1
Cc1ccc(C)c(CSc2nnc(C)n3c2cc2occc23)c1	103.0	103.0	-8.4	-5.8
CN(C)/C=C(\C#N)C(=O)NCc1ccc(F)cc1F	103.0	101.0	4.2	0.0
CCOC(=O)C1C(=O)NC(N2CCc3ccccc32)=NC1c1ccco1 (stereo not drawn)	101.0	97.0	5.0	-19.0
O=C(CCS(=O)(=O)c1ccc2c(c1)OCC(=O)N2)NCc1ccccc1Cl	101.0	103.0	-9.0	3.4
O=C(C1CCCO1)N1CCN(C(=S)NC2CCCCC2)CC1 (stereo not drawn)	100.0	103.0	-8.1	-23.1
Cc1cc2oc(=O)cc(Cn3ccsc3=N)c2cc1C(C)C	95.0	103.0	0.4	6.0
OC1(C(F)(F)F)CC(c2ccncc2)=NN1 (stereo not drawn)	101.0	96.0	-3.6	0.1
Cc1cc(C)cc(-n2ccnc(NCc3ccc4c(c3)OCO4)c2=O)c1	101.0	106.0	-134.2	-4.4
Cc1cc(NC(=O)CSc2ncccn2)no1	103.0	105.0	2.0	-40.9
CCN(CC(=O)Nc1ccc(NC(C)=O)cc1)C(=O)c1ccccc1SCc1c(C)noc1C	101.0	106.0	-4.1	12.7
Cc1ccnc2nc(C(=O)NC3CCCc4ccccc43)nn12 (stereo not drawn)	106.0	104.0	-11.9	2.7
O=C(NCCC(=O)N1CCN(C(=O)c2ccco2)CC1)c1ccccc1Cl	105.0	108.0	-4.7	-10.4
CCN(CC)c1ncccc1C(=O)NCC1CCCO1 (stereo not drawn)	104.0	104.0	12.5	-27.7
NC(=O)C1CCN(Cc2cc(=O)n3ccsc3n2)CC1	104.0	115.0	8.6	-4.5

18 consecutive entries already listed:
SMILES	Polio RdRp inh	Polio RdRp inh intensity	MbtI inh	Mtb MenB inh
CC(CN1CCOCC1)OC(=O)c1ccc2c(c1)OCCO2 (stereo not drawn)	107.0	112.0	/	-6.6
O=c1[nH]c2ccc(S(=O)(=O)NC3CC3)cc2[nH]1	101.0	99.0	-5.1	-27.2
CNC(=O)c1cccc(N)c1	95.0	94.0	119.2	-21.0
Cc1ccc(C)c(S(=O)(=O)CCC(=O)O)c1	101.0	103.0	-4.8	-29.4
CC(C)NC(=O)c1c2c(nc3ccccc13)CCCC2	100.0	96.0	-3.0	/
O=S(=O)(c1ccccc1)N(Cc1ccccc1)Cc1ccccc1	103.0	105.0	-2.4	-24.7
COc1ccc(CCNc2nc3c(c(C(F)(F)F)n2)CCCCC3)cc1OC	100.0	102.0	-11.2	2.1
Cc1ccc(C)c(CSc2nnc(C)n3c2cc2occc23)c1	103.0	103.0	-8.4	-5.8
CN(C)/C=C(\C#N)C(=O)NCc1ccc(F)cc1F	103.0	101.0	4.2	0.0
CCOC(=O)C1C(=O)NC(N2CCc3ccccc32)=NC1c1ccco1 (stereo not drawn)	101.0	97.0	5.0	-19.0
O=C(CCS(=O)(=O)c1ccc2c(c1)OCC(=O)N2)NCc1ccccc1Cl	101.0	103.0	-9.0	3.4
O=C(C1CCCO1)N1CCN(C(=S)NC2CCCCC2)CC1 (stereo not drawn)	100.0	103.0	-8.1	-23.1
Cc1cc2oc(=O)cc(Cn3ccsc3=N)c2cc1C(C)C	95.0	103.0	0.4	6.0
OC1(C(F)(F)F)CC(c2ccncc2)=NN1 (stereo not drawn)	101.0	96.0	-3.6	0.1
Cc1cc(C)cc(-n2ccnc(NCc3ccc4c(c3)OCO4)c2=O)c1	101.0	106.0	-134.2	-4.4
Cc1cc(NC(=O)CSc2ncccn2)no1	103.0	105.0	2.0	-40.9
CCN(CC(=O)Nc1ccc(NC(C)=O)cc1)C(=O)c1ccccc1SCc1c(C)noc1C	101.0	106.0	-4.1	12.7
Cc1ccnc2nc(C(=O)NC3CCCc4ccccc43)nn12 (stereo not drawn)	106.0	104.0	-11.9	2.7

Additional structures follow:
SMILES	Polio RdRp inh	Polio RdRp inh intensity	MbtI inh	Mtb MenB inh
CC(Oc1ccccc1)C(=O)OCc1nc2ccsc2c(=O)[nH]1 (stereo not drawn)	99.0	103.0	9.2	-0.7
CCCn1c(SC(C)C(=O)c2ccc(Cl)cc2)n[nH]c1=O (stereo not drawn)	102.0	106.0	-0.2	-27.5
O=c1ccn(-c2ccccc2)[nH]1	109.0	114.0	/	-12.3
CCOC(=O)c1c(NC(=O)CN2CCCC2c2cccn2C)sc(C)c1C (stereo not drawn)	108.0	109.0	17.1	-18.1
Cc1ccc(C(=O)C(C)Sc2nnc3ccccn23)cc1 (stereo not drawn)	103.0	106.0	9.2	-10.6
O=c1c(O)c(-c2cccs2)[nH]c2cc(Cl)ccc12	106.0	147.0	-21.6	-66.7
CN(Cn1[nH]c(=O)ccc1=O)c1ccccc1	104.0	105.0	/	-8.3
COc1cccc(NC(=S)N/N=C/c2ccc(O)cc2)c1	109.0	105.0	-7.6	-66.2
COc1ccc(NCn2nnc3ccccc32)cc1	105.0	109.0	-6.7	/
CC1=CC(C)C(C(=O)O)C(C(=O)N2CCN(C)CC2)C1 (stereo not drawn)	101.0	97.0	-4.3	/
CSc1nsc(SCC(=O)NC2CCCCC2)n1	99.0	103.0	-3.4	-1.0
CN(/N=C/c1ccc(C(C)(C)C)cc1)C1=NCCN1	99.0	100.0	3.8	5.6
COc1ccc(C(=O)N2c3ccccc3CCc3ccccc32)cc1	102.0	107.0	/	-21.2
O=C(O)/C=C/c1c(Cl)nc2ccccn12	100.0	95.0	12.8	-2.2
O=C1CS/C(=C\c2nc3ccccc3s2)N1	136.0	196.0	8.6	-54.9
CN1CCN(P2(=S)C3=C(CCC3)C3=C(CCC3)N2c2ccccc2)CC1 (stereo not drawn)	103.0	110.0	-14.8	-20.2
CC1CCCCC1NC(=O)CCSCc1cccc(Cl)c1 (stereo not drawn)	103.0	100.0	-1.6	-16.3
O=S(=O)(NCC(Nc1ccccc1)c1ccccc1)c1ccc(Cl)cc1 (stereo not drawn)	104.0	108.0	-7.0	/
COC(=O)C1=C(CSc2nc3ccccc3o2)NC(=O)NC1c1cccc(OC)c1 (stereo not drawn)	104.0	102.0	-3.8	-36.0
CCCn1c(NC(=O)[C@@H](NC(=O)c2cc(OC)cc(OC)c2)C(C)C)nc2ccccc21	104.0	107.0	13.9	-48.5
COC(=O)c1c(NC(=O)/C(C#N)=C/c2ccco2)sc(C)c1C	95.0	99.0	82.3*	-12.1
Cc1cc(C)c2c(=O)cc(-c3ccccc3Cl)oc2c1	104.0	113.0	-10.3	4.7
CCN(c1ccc(OC)cc1)S(=O)(=O)c1ccc2c(c1)CC(C)N2C(C)=O (stereo not drawn)	100.0	102.0	-7.2	0.2
COc1ccc(CCC(=O)Nc2ccc(-c3noc(-c4ccc(OC)c(OC)c4)n3)cc2)cc1	100.0	102.0	-19.3	-24.8
CCOC(=O)c1cc(C)n(CC(=O)OCc2ccc(C#N)cc2)c1C	103.0	99.0	0.9	-39.0
CCC(c1nnnn1C1CCCC1)N(Cc1cccs1)Cc1cc2cccc(C)c2[nH]c1=O (stereo not drawn)	103.0	102.0	9.8	14.6
O=C(c1ccc2c(c1)N(Cc1ccccc1)CCS2)N1CCN(c2ccccn2)CC1	101.0	98.0	12.3	-13.8
CCOC(=O)c1c(C#N)c(C)n(-c2ccccc2)c1C	102.0	111.0	-7.0	/
CCS(=O)c1ccccc1C(=O)NCc1ccc(F)cc1 (stereo not drawn)	99.0	106.0	86.5*	4.0
CN1CCN(C(=O)c2cc3ccccc3o2)CC1	100.0	95.0	-10.8	/
CSc1ncc(C(=O)NN)n1C	105.0	104.0	-4.0	-6.4
COc1cccc(C(=O)N2CCCCCC2)c1	102.0	109.0	/	-36.5
CC(=O)N/N=C(\Cc1nc2ccccc2[nH]1)c1ccccc1	106.0	113.0	-4.2	-2.4
COc1ccc(Cl)cc1-c1nc(SCC(=O)NC2CCS(=O)(=O)C2)n[nH]1 (stereo not drawn)	97.0	94.0	12.6	-4.3
Cn1/c(=N/N=C2c3cc(S(=O)(=O)NCCO)ccc3-c3ccc(S(=O)(=O)NCCO)cc32)sc2ccccc21	44.0	236.0	-10.2	-66.2
O=C(OCC(=O)N1CCCC1)c1ccc2c(c1)OCO2	103.0	108.0	59.3	-36.3
CCC(=O)c1ccc(OC(=O)c2cn(-c3ccccc3)nc2-c2ccccc2)cc1	103.0	100.0	-0.3	-33.3
O=C(c1ccccc1)c1ccc(O)cc1O	68.0	188.0	-5.6	/
O=C(NC1CC1)c1nc(-c2ccccc2)no1	101.0	102.0	-2.6	1.2
O=C(CCS(=O)(=O)c1ccc2c(c1)SCC(=O)N2)NCc1cccs1	105.0	105.0	-7.7	-12.1
COC(=O)c1ccc(COC(=O)c2ccc3[nH]c(C)c(C)c3c2)o1	109.0	105.0	17.9	-42.0
Cc1nc(C)c(-c2csc(Nc3ccccc3)n2)s1	102.0	102.0	-8.9	/
CC(C)CC(=O)N1CCN(C(=O)COc2ccc(-c3ccccc3)cc2)CC1	99.0	103.0	/	-17.2
Cc1onc(-c2c(F)cccc2Cl)c1C(=O)N=C(N)N1CC(C)OC(C)C1 (stereo not drawn)	100.0	97.0	-3.2	-11.4
c1csc(-c2nnc(CON=C3c4ccccc4-c4ccccc43)o2)c1	102.0	95.0	9.2	-47.0
N=C1C(c2ccc(Br)cc2)=C(O)C2CCc3ccccc3N12 (stereo not drawn)	108.0	109.0	6.0	6.4
O=c1cc(C(F)(F)F)nc(Cc2c(Cl)cccc2Cl)[nH]1	106.0	108.0	-11.3	-9.9
NC(CO)Cc1ccccc1 (stereo not drawn)	104.0	103.0	5.6	-27.8
O=C(NCc1ccc(F)cc1)c1ccc(N2CCCS2(=O)=O)cc1	104.0	106.0	-7.6	-13.1
O=C(CSc1ncn[nH]1)NCCCc1ccccc1	110.0	102.0	-6.3	7.3
COc1cccc(CNCCO)c1OCc1ccccc1F	103.0	98.0	-5.5	-12.3
COc1ccc(CCNC(=O)CSc2ccccc2Cl)cc1	102.0	104.0	30.9	/
CC(C)CNC(=O)Cn1c(=O)cnc2ccccc21	105.0	104.0	-1.1	-2.0
CC(C)(C)c1ccc(CNCc2ccco2)cc1	111.0	113.0	/	-10.2
O=C(c1ccccc1)c1ccc(CBr)cc1	100.0	104.0	-1.0	/
S=C(Nc1ccccc1)N1CCCCC1c1cccnc1 (stereo not drawn)	102.0	117.0	-4.0	-15.9
CNC(=O)c1ccccc1S(=O)c1cccc2cccc(C(=O)OC)c12 (stereo not drawn)	103.0	105.0	6.9	2.9
CSc1ncccc1C(=O)Nc1ccc(F)cc1	104.0	100.0	3.6	1.3
Nc1nc(=O)n(CC(O)C(=O)O)cc1Br (stereo not drawn)	103.0	102.0	2.5	0.4

Screening data (PubChem)
